D2 potentiator: Beta-Arrestin HTS for Positive Allosteric Modulators of the Human D2 Dopamine Receptor: Potentiators | D(2) dopamine receptor (Homo sapiens), P14416 | DiscoveRx D2 beta-arrestin cells, luminescence, 90 min; 100% = 57 uM dopamine signal | potentiation, % (no concentration beside the values) | 0.23% of 360,000 active | AID 624464, 2012; active = potentiation of 50% or more; inconclusive = 30% to 50%; inactive = 30% or less;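 note: compound concentration not given in the record; tested on top of an EC20 dose of dopamine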
Target sequence (P14416 whole entry, looked up): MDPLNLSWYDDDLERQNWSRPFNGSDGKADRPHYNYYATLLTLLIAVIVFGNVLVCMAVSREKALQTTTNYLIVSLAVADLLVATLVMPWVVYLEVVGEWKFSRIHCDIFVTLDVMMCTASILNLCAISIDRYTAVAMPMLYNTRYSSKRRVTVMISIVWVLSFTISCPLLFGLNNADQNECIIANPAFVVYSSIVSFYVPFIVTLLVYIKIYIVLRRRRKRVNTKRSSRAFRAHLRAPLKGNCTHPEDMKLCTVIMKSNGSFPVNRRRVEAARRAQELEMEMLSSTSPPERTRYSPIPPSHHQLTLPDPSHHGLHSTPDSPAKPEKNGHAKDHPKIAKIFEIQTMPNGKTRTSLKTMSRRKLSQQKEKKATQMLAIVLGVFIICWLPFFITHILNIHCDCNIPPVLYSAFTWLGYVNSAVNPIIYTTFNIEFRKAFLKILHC
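D2 cells co-treated with compound plus 50 nM dopamine (EC20) for 90 min at 37 deg C to detect potentiation. Beta-arrestin recruitment was read as enzyme-fragment luminescence after 1 h at ambient temperature. Full response was set by 57 uM dopamine.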
Six1-Eya2 blk: qHTS Assay for Inhibitors of the Six1/Eya2 Interaction. AID 651725, 2012. AlphaScreen GST-Six1/His-Eya2 binding, biochemical; active compounds read low; control for the full effect not named in the record. 0.56% of 360,000 active. activity change, % (no concentration beside the values); in the data active = activity change below about -65%; inconclusive = about -30% to -65%; inactive = above about -30%; note: % is set by controls: 0 for no effect and ±100 for the full control effect
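Six1/Eya2 binding was read as AlphaScreen signal after compounds were pinned into GST-Six1 plus His-tagged Eya2 (5X stock 250/500 nM) in pH 8.0 Tris/NaCl/TCEP buffer, beads added, then incubated 1 h, 37 C, dark.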
CtBP-E1A inh: qHTS Assay for Inhibitors of the CtBP/E1A Interaction. CtBP / adenovirus E1A interaction (AlphaScreen). 0.49% of 340,000 active. activity change, % (concentration not given with the values). AlphaScreen GST-E1A/His-CtBP binding, 1536-well; active compounds read low; control for the full effect not named in the record; in the data active means activity change below about -65%; inconclusive means about -30% to -65%; inactive means above about -30%; note: % is set by controls: 0 for no effect and ±100 for the full control effect
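Protein mix (5X: 125 nM each GST-E1A, His-CtBP) was incubated with pinned compound 2 h at 37 deg C in dark, in 50 mM Tris pH 8.0 buffer with 300 mM NaCl. Glutathione donor and nickel acceptor beads followed; AlphaScreen signal read after 1 h.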
TRPML1 agonist: qHTS for Agonists of the Human Mucolipin Transient Receptor Potential 1 (TRPML1); Mucolipin-1 (Homo sapiens), Q9GZU1; TRPML1-expressing cells, Ca2+ dye fluorescence, FDSS; host cell line not named in the record; reference of the full effect not given here; activation, % (concentration not given with the values); 0.12% of 410,000 active; in the data active = activation above about 50%; inconclusive = about 30% to 50%; inactive = below about 30%; note: 0% is about no effect; the text of the record puts the active cut at 80%
Target sequence (Q9GZU1 whole entry, looked up): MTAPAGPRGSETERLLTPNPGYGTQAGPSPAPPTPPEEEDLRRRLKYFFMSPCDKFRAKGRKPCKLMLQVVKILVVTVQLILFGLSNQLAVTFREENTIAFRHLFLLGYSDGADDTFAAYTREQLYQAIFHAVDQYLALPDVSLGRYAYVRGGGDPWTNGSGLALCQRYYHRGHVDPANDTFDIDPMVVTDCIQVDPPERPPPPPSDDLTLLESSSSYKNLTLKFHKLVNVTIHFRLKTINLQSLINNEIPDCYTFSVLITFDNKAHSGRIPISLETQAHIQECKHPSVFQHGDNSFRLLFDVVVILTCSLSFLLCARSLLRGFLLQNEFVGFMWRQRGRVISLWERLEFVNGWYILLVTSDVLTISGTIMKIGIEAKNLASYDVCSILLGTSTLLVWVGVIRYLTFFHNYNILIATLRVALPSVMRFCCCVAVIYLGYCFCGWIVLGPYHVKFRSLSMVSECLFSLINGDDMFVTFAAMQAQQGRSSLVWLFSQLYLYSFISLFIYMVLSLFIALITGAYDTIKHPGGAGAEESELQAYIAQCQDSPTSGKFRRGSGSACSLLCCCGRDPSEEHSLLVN
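Agonist activity was taken from a 110 s kinetic Ca2+ dye read on the FDSS after pinning compounds onto TRPML1-DL cells. The cells were seeded at 1,500/well with Tet inducer, incubated about 16 h, then dye-loaded at room temperature.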
D2 ag: Beta-Arrestin HTS for Positive Allosteric Modulators of the Human D2 Dopamine Receptor: Agonists; 0.084% of 360,000 active; DiscoveRx PathHunter D2 beta-arrestin, luminescence, 90 min; 100% = 57 uM dopamine signal; D(2) dopamine receptor (Homo sapiens), P14416; activation, % (no concentration beside the values); AID 624465, 2012; in the data active = activation above about 40%; inconclusive = about 15% to 40%; inactive = below about 15%; note: compound concentration not given in the record; the text of the record calls up to 30% inactive
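DiscoveRx PathHunter D2 beta-arrestin cells (2,100/well) attached overnight, then compound-stimulated 90 min at 37 C in HBSS/10 mM HEPES/0.1% Tween-20 buffer; beta-galactosidase complementation read by luminescence after 1 h at ambient temperature. Dopamine 57 uM final (EC100) as control.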
PINK1 modulator: A Quantitative High throughput Screen to Identify Chemical Modulators of PINK1 Expression; Potency, µM (highest dose often 76.6 µM), for the others: at the highest dose activation (PINK1 increase), most hits filed as activators; PINK1 immunofluorescence, high-content cytometry, 24 h; 0.2% of 410,000 active; active = well fitted activation curve with a large enough effect; inconclusive = small, poorly fitted or top-dose-only effect; inactive = flat fitted curve, though single readings scatter; cell line not stated here;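 note: potency is the fitted concentration of half-maximal effect; % of control where 0% means no effect; nearly all actives have a fitted effect of over 65% in size; a mitochondrial uncoupler was the plate control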
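Cells are seeded, rested 12 hours, then given compound at five concentrations or DMSO for 24 hours. After fixation, blocking and antibody staining, PINK1 amount and mitochondrial localization are scored; CCCP serves as control.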
Starred values were filed as active, the others as inactive; ? = inconclusive; / = no result given; & = joins results of further samples; [ ] = another dose, or the depositor's remark. No enrichment for hits. About 1.3% of those tested had a hit in this group.

Below each compound – D2 potentiator	Six1-Eya2 blk	CtBP-E1A inh	TRPML1 agonist	D2 ag	PINK1 modulator
- Cc1ccc(C)c(S(=O)(=O)Nc2ccc(O)c(C(=O)O)c2)c1
→ -4	5	0	-0.1	-0.4	-0.6%
- O=C(O)CCCC(=O)N1N=C(c2c(-c3ccccc3)c3cc(Cl)ccc3[nH]c2=O)CC1c1cccs1 (configuration not stated)
→ -4	15	/	0.8	-1.2	0.4%
- CCn1c(=O)n(CC(=O)Nc2cccc(OC)c2)c(=O)c2ccccc21
→ -8	-8	2	-0.4	-2.6	3.4%
- CCOc1ccc(NC(=O)N2CCCC2C(=O)NCC2CCCO2)cc1 (configuration not stated)
→ 1	-6	-17	-0.4	3.3	4.5%
- O=C(NCCCc1ccccc1)c1cccc(S(=O)(=O)N2CCOCC2)c1
→ -7	-1	/	-1.1	-1.1	0.2%
- S=C(NC12CC3CC(CC(C3)C1)C2)N1CCOCC1
→ -9	6	1	0.9	-1.8	0.4%
- Fc1ccc(C2=Nc3cccc4cccc(c34)N2)cc1
→ -7	-1	/	0.3	12	-1.4%
- COc1ccc(-c2n[nH]c(=S)n2CC(C)C)cc1
→ 6	0	-4	-0.4	1.7	-0.7%
- O=C(c1ccco1)N1N=C(c2ccc(Br)cc2)CC1c1ccco1 (configuration not stated)
→ 3	-1	4	1.0	-0.9	4.0%
- Cc1ccc(N(C(=O)CCC(=O)Nc2cc(C)on2)C(C(=O)NC2CCCC2)c2cccs2)cc1 (configuration not stated)
→ -18	4	-1	0.0	-0.8	-1.2%
- CCCn1c(=N)n(CC(O)COc2ccc(C)cc2)c2ccccc21 (configuration not stated)
→ -17	-1	-5	0.7	-5.2	1.5%
- COc1ccccc1Cc1nnc(NC(=O)C2CCN(C(=O)c3ccco3)CC2)s1
→ 3	0	-2	0.1	0.4	0.7%
- COC(=O)C1Cc2c([nH]c3ccccc23)C(C)N1 (configuration not stated)
→ -4	1	-10	0.9	1.5	0.0%
- COc1cccc(N2CCN(c3ccc4nnc(CCC(=O)Nc5ccc(F)cc5F)n4n3)CC2)c1
→ -12	-2	-11	-1.0	-6.3	0.8%
- CCOc1ccc(CCNS(=O)(=O)c2cnc[nH]2)cc1OCC
→ -4	12	13	-1.2	-1.1	-1.5%
- O=C(Nc1cc(C(=O)N2CCN(c3ccccc3O)CC2)ccc1Cl)c1cccs1
→ -19	-10	-15	-0.1	0.4	2.7%
- Cc1ccccc1C(=O)N1CCC(C(=O)OCc2ccccn2)CC1
→ -8	-4	2	0.2	-1.8	0.1%
- CC(=O)c1cc(-c2ccccc2)n(CCC(=O)NC2CCCCC2)c1C
→ 18	-7	-7	2.4&1.0	-3.2	0.4%&-0.3%
- COc1ccc(C2(C(=O)NCCc3ccccc3)CCCC2)cc1
→ -2	1	/	-1.1	3.3	-1.2%
- Cc1ccc2nc(NCc3ccc(F)cc3)c3nncn3c2c1
→ -2	-2	7	2.2	-6.0	?
- O=S(=O)(c1ccccc1)N1CCN(Cc2ccccc2)c2ccccc21
→ -9	-2	0	3.3	1.0	-1.5%
- Cc1ccc(CN(N=Nc2nonc2N)c2nonc2N)c(C)c1
→ 26	-2	-1	3.5	3.1	4.9%
- NC(=O)CSc1oc(-c2cccs2)nc1S(=O)(=O)c1ccccc1
→ -23	-7	-3	-0.3	-0.6	-2.1%
- Oc1ccccc1-c1nc(N2CCN(Cc3ccccc3)CC2)c2ccccc2n1
→ -8	0	3	-0.2	-3.8	3.9%
- CCN(c1ccccc1)S(=O)(=O)c1ccc(C(=O)Nc2nnc(-c3ccco3)o2)cc1
→ -14	-13	/	1.3	3.5	3.4%
- CC1=CC(C)(C)NC(=S)N1c1ccc(N(C)C)cc1
→ -1	-2	0	-0.2	1.0	-0.2%
- CN(c1ccccc1)S(=O)(=O)c1cccc(NC(=O)CSc2n[nH]c(N)n2)c1
→ -1	-7	4	1.2	2.7	-0.2%
- O=C(CSc1nc2[nH]ncc2c(=O)[nH]1)NCCc1ccccc1
→ -3	-2	/	0.7	-5.8	0.3%
- C=C(C)C1CC=C(C)/C(=N/NC(=O)c2ccc(NC(=O)CCC)cc2)C1 (configuration not stated)
→ 5	-2	4	1.1	2.3	-3.7%[38.3 µM]
- CN(C(=O)COC(=O)c1ccc(Br)c([N+](=O)[O-])c1)c1c(N)n(Cc2ccccc2)c(=O)[nH]c1=O
→ -21	5	9	-0.6	-8.1	3.4%

Not a retest: an excerpt of the list.
Below each compound – D2 potentiator	Six1-Eya2 blk	CtBP-E1A inh	TRPML1 agonist	D2 ag	PINK1 modulator
- Cc1ccc(CN(N=Nc2nonc2N)c2nonc2N)c(C)c1
→ 26	-2	-1	3.5	3.1	4.9%
- NC(=O)CSc1oc(-c2cccs2)nc1S(=O)(=O)c1ccccc1
→ -23	-7	-3	-0.3	-0.6	-2.1%
- Oc1ccccc1-c1nc(N2CCN(Cc3ccccc3)CC2)c2ccccc2n1
→ -8	0	3	-0.2	-3.8	3.9%
- CCN(c1ccccc1)S(=O)(=O)c1ccc(C(=O)Nc2nnc(-c3ccco3)o2)cc1
→ -14	-13	/	1.3	3.5	3.4%
- CC1=CC(C)(C)NC(=S)N1c1ccc(N(C)C)cc1
→ -1	-2	0	-0.2	1.0	-0.2%
- CN(c1ccccc1)S(=O)(=O)c1cccc(NC(=O)CSc2n[nH]c(N)n2)c1
→ -1	-7	4	1.2	2.7	-0.2%
- O=C(CSc1nc2[nH]ncc2c(=O)[nH]1)NCCc1ccccc1
→ -3	-2	/	0.7	-5.8	0.3%
- C=C(C)C1CC=C(C)/C(=N/NC(=O)c2ccc(NC(=O)CCC)cc2)C1 (configuration not stated)
→ 5	-2	4	1.1	2.3	-3.7%[38.3 µM]
- CN(C(=O)COC(=O)c1ccc(Br)c([N+](=O)[O-])c1)c1c(N)n(Cc2ccccc2)c(=O)[nH]c1=O
→ -21	5	9	-0.6	-8.1	3.4%

(further entries)
Below each compound – D2 potentiator	Six1-Eya2 blk	CtBP-E1A inh	TRPML1 agonist	D2 ag	PINK1 modulator
- O=C(Nc1nnc(C2CC2)s1)c1cncc(Br)c1
→ -5	-5	/	-0.6	-6.2	0.7%
- Oc1ccccc1-c1cc(-c2ccccc2Cl)[nH]n1
→ -9	11	7	0.5	3.6	0.4%
- CN(C)CCCNC(NC(=O)/C=C/c1ccccc1)C(Cl)(Cl)Cl (configuration not stated)
→ -13	3	-7	-0.1	-5.9	2.0%
- COc1ccc(N2CCN(S(=O)(=O)CCNC(=O)c3cccs3)CC2)cc1
→ -24	11	3	0.3	8.1	8.9%
- Nc1ccn([C@@H]2O[C@H](C(=O)NCC(F)(F)F)[C@@H](O)[C@H]2O)c(=O)n1
→ 2	1	6	0.2	3.3	4.1%
- O=C(Nc1ccc(F)cc1)N1CCCN(c2ccc(C(F)(F)F)cn2)CC1
→ -3	17	9	-0.3	0.6	0.4%
- COCCOC(=O)C1=C(C)NC2=C(C(=O)CCC2)C1c1ccc2c(c1)OCO2 (configuration not stated)
→ -9	5	4	0.0	-2.3	/
- O=C(NCC1CCN(C(=O)c2ccc([N+](=O)[O-])cc2)CC1)C(=O)Nc1ccccc1
→ 8	-8	12	-0.6	2.5	7.5%
- COc1ccccc1N=NC1=C(O)CC(C)(C)CC1=O
→ -22	-9	4	1.2	-7.1	-1.5%
- COc1ccc(CCNC(=O)CNC(=O)Cn2cnc3sc(C)c(C)c3c2=O)cc1OC
→ 1	6	3	-0.1	-3.1	0.2%
- Cc1cccc(NC(=O)C[n+]2ccc(N(C)C)cc2)c1
→ -4	2	-2	0.1	-5.2	-1.1%
- S=C(NCCc1ccccc1)Nc1ccc(N2CCCCC2)cc1
→ -3	-26	-25	5.3	1.9	5.2%
- O=S(=O)(Nc1ccc2c(c1)OCO2)c1cccs1
→ -6	5	-6	0.6	-0.6	-2.6%
- COc1ccc(-c2n[nH]c3c2C(c2ccc(OC)c(OC)c2)N(c2ccccc2)C3=O)cc1 (configuration not stated)
→ -8	-5	6	1.2	-2.1	6.5%[38.3 µM]
- O=[N+]([O-])c1ccc(C2=NN(c3ccccc3)C(c3ccco3)C2)cc1 (configuration not stated)
→ -6	0	3	55*	0.0	?
- Cc1ccc(C)c(S(=O)(=O)N2CCN(C(=O)C3CC3C)CC2)c1 (configuration not stated)
→ 7	8	-2	-0.2	-6.3	1.1%
- CC(C)CCN1CCN(Cc2ccc(C#CC(C)(C)O)s2)CC1CCO (configuration not stated)
→ -17	0	-11	0.0	2.9	0.3%
- CC(OC(=O)c1ccc(Cl)nc1)C(=O)NC1(C#N)CCCCC1 (configuration not stated)
→ 7	8	-8	0.6	0.3	0.2%
- CCCn1c(SCC(=O)Nc2cc(S(=O)(=O)N3CCOCC3)ccc2OC)n[nH]c1=O
→ -10	1	0	1.8	-3.8	7.0%
- CCOCCCNC(=O)/C(C#N)=C/c1ccc(C)o1
→ -1	-3	12	0.0	-2.7	-2.0%
- COc1ccccc1NNC(=O)c1cc(C(C)(C)C)nn1Cc1ccccc1
→ -13	2	1	1.0	-10	8.3%
- CCCCn1c(N)c(N(CCOC)C(=O)COC(=O)COc2ccccc2C#N)c(=O)[nH]c1=O
→ 3	-4	-2	0.8	0.7	1.0%
- CCn1cc(/C=C(\NC(=O)c2ccccc2Cl)C(=O)N2CCOCC2)c2ccccc21
→ -12	3	-4	0.1	0.5	0.6%
- CCN(Cc1ccccc1)C(=O)CSc1ncn[nH]1
→ -5	10	13	-0.3	-2.6	1.4%
- O=C(Cn1nnc2ccccc21)N1CCCCC1
→ 9	5	2	-0.3	5.1	3.8%
- Cc1cc(Cl)ccc1NC(=S)N1CCN(Cc2ccccc2)CC1
→ -3	-9	2	0.3	-0.8	2.4%
- Cc1ccc(S(=O)(=O)N(C)C)cc1NC(=O)COC(=O)c1ccc2c(=O)n3c(nc2c1)CCC3
→ -36	-4	-1	2.1	-4.8	-2.8%
- Cc1ccc(C(C(=O)NCCc2ccccc2)N(C(=O)c2csnn2)C2CC2)o1 (configuration not stated)
→ -3	1	-4	0.0	-0.2	-4.1%
- COc1cc(/C=C2\SC(N3CCc4ccccc4C3)=NC2=O)cc(OC)c1OC
→ -23	-1	1	0.7	-7.8	17%
- CCCCNC(=O)C(C)N(CCN(C)C)C(=O)CCCN1C(=O)NC(c2ccc(Cl)cc2)C(C(=O)OCc2ccccc2)=C1C (configuration not stated)
→ /	0	-1	-0.3	-4.2	-1.2%
- Cc1noc(C)c1S(=O)(=O)N(CC(=O)O)c1ccc2c(c1)OCO2
→ -16	-3	4	0.4	0.1	-1.0%
- COc1cc(C(=O)N2CCC(n3c(C)nc4cc(F)ccc43)CC2)cc(OC)c1OC
→ 3	0	9	0.0	-2.9	1.1%
